miR-21 FLuc: miR-21 reporter, rising signal; HeLa miR-21 FLuc reporter, luciferase, 48 h; Potency, µM (series often up to 38.3 µM), without a hit: at the top dose reporter change, positive = more light; 340,000 tested, under 10 active; active = well fitted rising curve with a large enough effect; inconclusive = small, poorly fitted or top-dose-only effect; inactive = no such curve, though single readings can be large or run the other way;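 note: % of control where 0% means no effect; miR-21 action dims this reporter so a rising signal means less miR-21 action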
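Compounds were titrated across several concentrations (up to approximately 40 uM) and incubated 48 hours with HeLa miR-21-FLuc reporter cells (miR-21 target sequence downstream of FLuc, endogenous miR-21). Readout was firefly luciferase luminescence after lytic detection reagent.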
Rango complex inh: prevents formation of the Rango-importin beta complex; Q14974; Rango CFP/YFP FRET sensor + importin beta, 45 min; Potency, µM (series often up to 92.2 µM), for inactives: top-dose inhibition of complex formation; 0.031% of 340,000 active; active = rising FRET ratio curve, often small or poorly fitted; inconclusive = mostly compound fluorescence or quenching in the first reads; inactive = flat curves in all reads;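 note: potency is the fitted concentration of half-maximal effect; 0% = DMSO wells and 100% = buffer wells lacking importin beta; nearly all actives have a fitted effect of over 15% in size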
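FRET biosensor Rango (snurportin 1 IBB between N-terminal EYFP and C-terminal Cerulean), 50 nM in PBS/1 mM DTT/0.02% Tween-20/0.1% BSA, preincubated 5 min RT with compound; 0.125 microM importin beta added, 45 min RT, CFP/YFP FRET ratio read.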
GLA inh pH 4.5: alpha-galactosidase A (human) inhibition, pH 4.5; P06280; purified enzyme, 4-MU-alpha-Gal fluorescence, pH 4.5; activity change, negative = inhibition, % at 105 µM; 230,000 tested, under 10 active; AID 1467; inconclusive = small, poorly fitted or top-dose-only inhibition, or a rising curve; inactive = flat fitted curve, though single readings scatter; no compound was filed as active;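 note: 0% = full activity with enzyme and -100% = basal without enzyme; dose as in the result columns while the protocol names 77 µM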
Target sequence (P06280 whole entry, looked up): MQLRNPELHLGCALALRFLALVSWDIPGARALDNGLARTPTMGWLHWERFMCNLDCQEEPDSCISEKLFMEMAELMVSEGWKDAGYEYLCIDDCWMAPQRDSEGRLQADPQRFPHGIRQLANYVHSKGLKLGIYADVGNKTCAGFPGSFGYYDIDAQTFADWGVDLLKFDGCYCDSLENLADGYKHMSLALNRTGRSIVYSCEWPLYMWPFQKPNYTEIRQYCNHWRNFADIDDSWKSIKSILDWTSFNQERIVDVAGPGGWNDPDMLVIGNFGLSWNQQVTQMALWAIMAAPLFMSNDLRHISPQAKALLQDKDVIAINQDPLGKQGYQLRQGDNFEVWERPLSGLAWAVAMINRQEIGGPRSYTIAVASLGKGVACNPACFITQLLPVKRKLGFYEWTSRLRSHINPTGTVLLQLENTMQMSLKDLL
Rango dissoc inh: prevents RanGTP from dissociating the Rango-importin beta complex; 0.071% of 340,000 active; AID 540253; Potency, µM (highest dose often 46.1 µM), without a hit: at the top dose activity change, negative = inhibition; Biochemical FRET Rango-importin beta, RanGTP-induced dissociation; active means falling FRET ratio curve, often poorly fitted, with flat reads before Ran was added; inconclusive means other falling curves, or compound fluorescence or quenching; inactive means flat or rising ratio curve;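 note: potency is the fitted concentration of half-maximal effect; % of control where 0% means no effect; nearly all actives have a fitted effect of over 45% in size; -100% = wells without RanGTP and RCC1; the record marks most hits as doubtful in a second field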
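Compounds preincubate 5 min with complex of recombinant Rango and importin beta in PBS with 1 mM DTT. Ran (0.6 uM) loaded with 2 mM GTP plus 0.2 uM RCC1 starts dissociation; FRET is recorded 45 min later.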
* hit, by the source's call; ? = inconclusive; . = not tested or not shown.

Start of the data: the first 18 compounds, to show the layout:
SMILES | miR-21 FLuc | Rango complex inh | GLA inh pH 4.5 | Rango dissoc inh
COc1cc(SC)ccc1C(=O)N(Cc1ccccc1)c1ccccn1 | -1.2% | 3.5% | -23.0 | -6.7%
COc1cccc(C(C#N)N2N=C(C)CC2(C)C)c1O (centres undefined) | 0.5% | -3.5% | 7.8 | -13.8%
CCCCc1cc(=O)oc2c(C)c(OCC(=O)N3CCC(C(=O)O)(c4ccccc4)CC3)ccc12 | -14.0% | 3.9% | . | 15.4%
O=C1c2cccnc2C(=O)N1Cc1ccc(F)cc1 | -0.7% | -0.2% | 2.9 | -1.6%
COc1c(OC)c(O)c2c(=O)c(O)c(-c3ccccc3)oc2c1OC | 2.4% | 3.1% | 4.7 | 5.5%
Cn1nnnc1SCC(=O)N1CCN(S(=O)(=O)c2ccccc2)CC1 | 0.6% | -1.5% | 1.1 | 8.7%
COc1ccc(Nc2cc(Sc3ccc(OC)cc3)ncn2)cc1 | 7.1% | 0.2% | . | -11.4%
O=S(=O)(N1CCCCC1)n1nnc2ccccc21 | -3.0% | -0.9% | -1.8 | 31.6%
CCOC(=O)C(CSCc1ccccc1)NC(=O)OC(C)(C)C (centres undefined) | -2.0% | 1.3% | -5.2 | 5.4%
Cc1ccccc1CS(=O)(=O)Cc1ccc(C(=O)NC2CCCCC2)o1 | 0.5% | 1.0% | . | 37.3%
CCCN1CCC(=O)N([C@H](CN=[N+]=[N-])Cc2ccccc2)CC1 | -5.7% | 1.2% | . | -1.3%
CCc1cc2cccc(C)c2nc1SCC(=O)N1CCN(C(=O)c2ccco2)CC1 | -0.6% | 2.1% | -5.2 | -4.3%
CCCCOC(=O)Nc1ccc(S(=O)(=O)Nn2cnnc2)cc1 | -0.3% | 4.3% | -2.1 | -1.2%
CCCCCC(=O)O/N=C(\C)c1ccn(S(=O)(=O)c2ccccc2)c1 | -8.5% | -3.0% | . | -5.2%
Cn1nccc1/C=C(/C#N)S(=O)(=O)c1ccccc1 | -8.0% | ? | -2.8 | -17.7%
Cn1c(SCC(=O)Nc2sccc2C#N)nnc1C1CC1 | . | -1.4% | . | 1.1%
O=C(NNC(=O)c1ccc(Cl)c(Cl)c1)c1cccnc1 | -12.3% | 1.2% | . | -3.5%
COc1ccc(Cl)cc1NC(=O)CN1C(=O)CC(C)S(=O)(=O)c2ccccc21 (centres undefined) | -0.7% | -0.3% | 6.4 | -11.0%

The listing, previewed entries included:
SMILES | miR-21 FLuc | Rango complex inh | GLA inh pH 4.5 | Rango dissoc inh
COc1cc(SC)ccc1C(=O)N(Cc1ccccc1)c1ccccn1 | -1.2% | 3.5% | -23.0 | -6.7%
COc1cccc(C(C#N)N2N=C(C)CC2(C)C)c1O (centres undefined) | 0.5% | -3.5% | 7.8 | -13.8%
CCCCc1cc(=O)oc2c(C)c(OCC(=O)N3CCC(C(=O)O)(c4ccccc4)CC3)ccc12 | -14.0% | 3.9% | . | 15.4%
O=C1c2cccnc2C(=O)N1Cc1ccc(F)cc1 | -0.7% | -0.2% | 2.9 | -1.6%
COc1c(OC)c(O)c2c(=O)c(O)c(-c3ccccc3)oc2c1OC | 2.4% | 3.1% | 4.7 | 5.5%
Cn1nnnc1SCC(=O)N1CCN(S(=O)(=O)c2ccccc2)CC1 | 0.6% | -1.5% | 1.1 | 8.7%
COc1ccc(Nc2cc(Sc3ccc(OC)cc3)ncn2)cc1 | 7.1% | 0.2% | . | -11.4%
O=S(=O)(N1CCCCC1)n1nnc2ccccc21 | -3.0% | -0.9% | -1.8 | 31.6%
CCOC(=O)C(CSCc1ccccc1)NC(=O)OC(C)(C)C (centres undefined) | -2.0% | 1.3% | -5.2 | 5.4%
Cc1ccccc1CS(=O)(=O)Cc1ccc(C(=O)NC2CCCCC2)o1 | 0.5% | 1.0% | . | 37.3%
CCCN1CCC(=O)N([C@H](CN=[N+]=[N-])Cc2ccccc2)CC1 | -5.7% | 1.2% | . | -1.3%
CCc1cc2cccc(C)c2nc1SCC(=O)N1CCN(C(=O)c2ccco2)CC1 | -0.6% | 2.1% | -5.2 | -4.3%
CCCCOC(=O)Nc1ccc(S(=O)(=O)Nn2cnnc2)cc1 | -0.3% | 4.3% | -2.1 | -1.2%
CCCCCC(=O)O/N=C(\C)c1ccn(S(=O)(=O)c2ccccc2)c1 | -8.5% | -3.0% | . | -5.2%
Cn1nccc1/C=C(/C#N)S(=O)(=O)c1ccccc1 | -8.0% | ? | -2.8 | -17.7%
Cn1c(SCC(=O)Nc2sccc2C#N)nnc1C1CC1 | . | -1.4% | . | 1.1%
O=C(NNC(=O)c1ccc(Cl)c(Cl)c1)c1cccnc1 | -12.3% | 1.2% | . | -3.5%
COc1ccc(Cl)cc1NC(=O)CN1C(=O)CC(C)S(=O)(=O)c2ccccc21 (centres undefined) | -0.7% | -0.3% | 6.4 | -11.0%
O=C(N=Nc1c(O)[nH]c2ccccc12)c1ccc2c(c1)OCO2 | -50.1% | -0.8% | -7.2 | 3.1%
CCn1c(Cc2ccccc2)nnc1SCC(=O)OC(C)C | -7.0% | -0.4% | 0.5 | 12.5%
CCCC(=O)NC(c1cccs1)c1cc([N+](=O)[O-])c2cccnc2c1O (centres undefined) | -0.9% | 2.2% | -8.2 | 1.6%
Cc1cc(O)ccc1Nc1nc2ccccc2nc1Nc1ccc(O)cc1C | -20.1% | ? | -6.7 | ?
CCCOc1ccc(-c2c(C(=O)N/N=C/c3ccc(OC)cc3)nnn2-c2nonc2N)cc1 | 2.8% | 1.3% | -11.0 | -2.7%
COc1cccc(-c2noc(CCCC(=O)NC3CCCC3)n2)c1 | 0.9% | -2.5% | . | -3.2%
CCc1ccc(NC(=S)N2CCNC(=O)C2CC(=O)OC)cc1 (centres undefined) | -3.6% | 5.2% | -0.8 | -9.8%

(continued)
SMILES | miR-21 FLuc | Rango complex inh | GLA inh pH 4.5 | Rango dissoc inh
CC(=O)c1c(C)[nH]c(C(=O)CN2C(=O)NC(C)(CCC(C)C)C2=O)c1C (centres undefined) | 3.5% | -1.7% | 5.9 | 6.1%
Nc1nc(CN2CCN(c3ccccc3)CC2)nc(Nc2ccc(Cl)cc2)n1 | 24.3% | -0.7% | -14.6 | 7.2%
COCC(O)CNc1ccccc1 (centres undefined) | -6.6% | -1.1% | -1.1 | 7.5%
Clc1ccc(CN2C3=NCCN3c3ccccc32)cc1 | 0.0% | -1.8% | 11.1 | -0.3%
CCOC(=O)c1[nH]c2cc(OC)c(OC)cc2c1N | -6.0% | -1.0% | -0.2 | -11.7%
COc1cc(C(=O)NNC(=O)C2CCC2)cc(OC)c1OC | . | -1.1% | . | 0.6%
O=C(NCc1nc2ccccc2[nH]1)c1cccs1 | -28.4% | -0.1% | 2.4 | -11.4%
Cn1cc(S(=O)(=O)N2CCC(C(N)=O)CC2)c(=O)n(C)c1=O | -0.6% | 1.4% | 2.8 | 16.7%
CC(=O)OCC(OC(C)=O)C(OC(C)=O)C(OC(C)=O)C(=O)Nc1ccc(C)cc1C (centres undefined) | 3.1% | -2.3% | 5.9 | 3.0%
Cc1ccc(-c2noc(Cn3nc(C(=O)O)c4ccccc4c3=O)n2)cc1 | -2.3% | 0.2% | . | -1.8%
CCC(C)N(C(=O)COC(=O)CN=C1NS(=O)(=O)c2ccccc21)C1CCS(=O)(=O)C1 (centres undefined) | . | 3.8% | . | 2.0%
NC(=O)c1nc[nH]c1C(=O)Nc1cccc(C(F)(F)F)c1 | . | -3.5% | . | -0.3%
O=C(/C=C/c1ccccc1)c1ccccc1 | -7.0% | 3.4% | . | 6.3%
Cc1ccc(C(=O)N/N=C2\CCCc3ccccc32)c(C)c1 | -51.2% | 0.2% | 4.4 | -0.8%
O=C(OCC(=O)c1ccc[nH]1)c1ccc([N+](=O)[O-])cc1 | . | 5.9% | . | -6.9%
COC(=O)c1ccc(-c2csc(NC(=O)c3ccc(S(=O)(=O)N4CCc5ccccc5C4)cc3)n2)cc1 | -3.5% | 0.1% | 8.9 | 2.2%
CCOCCCNC(=O)/C(C#N)=C/c1ccccc1F | 2.0% | 0.5% | -5.6 | -15.6%
O=C(CN1C(=O)S/C(=C\c2ccc(O)cc2)C1=O)c1ccccc1 | -10.0% | ? | -7.9 | ?
O=C(N=C1SC2CS(=O)(=O)CC2N1c1cccc(F)c1)C1CC1 (centres undefined) | 0.5% | 2.6% | . | 8.3%
COc1cccc(CN(C)C(=O)c2ccc(N3CCCC3)c([N+](=O)[O-])c2)c1 | -13.8% | 3.1% | . | -12.2%
O=C(OCc1ccccc1)c1cnc(Cl)c(Cl)c1 | 1.4% | 3.9% | . | 7.0%
COC(=O)/C=C1\N/C(=N\c2nc(C)cc(C)n2)N(c2ccc(Cl)cc2)C1=O | 4.1% | 1.2% | 4.8 | -1.1%
Cc1nnc2n1NC(c1ccc(Cl)cc1)C(C(=O)N1CCC(C)CC1)S2 (centres undefined) | 2.1% | 0.4% | 11.6 | -6.4%
CC(C)C[C@H](NC(=O)OC(C)(C)C)C(=O)N[C@@H](CO)[C@H](O)[C@@H]1C[C@@H]1C(=O)NC1CCCCC1 | 1.7% | -0.5% | . | 6.1%
O=C(CN1CCN(C(C(=O)Nc2ccc(F)cc2)c2ccccc2)CC1)NC1CC1 (centres undefined) | . | 2.4% | . | 27.5%

Additional records:
SMILES | miR-21 FLuc | Rango complex inh | GLA inh pH 4.5 | Rango dissoc inh
Cc1ccc(NC(=O)CN2C(=O)NC3(CCc4ccccc43)C2=O)cc1Cl (centres undefined) | -3.6% | -1.4% | 3.5 | -27.0%
O=C(c1ccccc1)c1nn(-c2ccc(Cl)cc2)c(=O)cc1C(F)(F)F | ? | -0.2% | 2.2 | -2.4%
COC(=O)[C@H]1Cc2cnoc2C[C@]1(C)C(=O)O | -3.9% | -3.2% | 1.6 | -1.5%
Cc1nn(Cc2ccccc2Cl)c(C)c1NC(=O)C1C2CCC(O2)C1C(=O)O (centres undefined) | -14.5% | 2.4% | -5.3 | -7.4%
c1ccc(-c2noc(-c3ccno3)n2)nc1 | -27.9% | 3.7% | 0.0 | 3.4%
CC(C(=O)NCc1ccccc1)N1CCN(c2ccc(F)cc2)CC1 (centres undefined) | -0.1% | -0.7% | . | -0.9%
O=C(c1cnccn1)N(Cc1ccco1)C1(C(=O)NC2CCCCC2)CCCCC1 | 0.5% | 7.8% | -3.1 | 32.7%
C=CCn1c(-c2ccccc2OCC)n[nH]c1=S | 3.5% | ? | 8.9 | 12.3%
CCCCC(=O)Nc1ccc(C)c(S(=O)(=O)N2CCCCCC2)c1 | . | -1.8% | . | 4.4%
O=C(NCc1ccc(F)cc1)c1cc(-c2ccco2)on1 | -21.0% | 0.4% | 1.1 | 7.8%
Oc1c(Cl)cc(Cl)c(Cl)c1CN1CCOCC1 | . | 2.1% | . | 16.0%
Cc1cc(C)c(Cn2c3ccccc3c3cnn(CC(=O)NCCN4CCOCC4)c(=O)c32)c(C)c1 | 10.9% | 0.0% | . | -1.1%
N=C1C(c2nc3ccccc3[nH]2)=C(O)CN1NC(=O)COc1cccc(F)c1 | 1.4% | . | -1.8 | .
CC(NC(=O)c1ccc2ccccc2n1)c1ccccc1 (centres undefined) | -8.4% | 1.5% | . | 1.2%
Cc1cc2oc(C(=O)NC3CCS(=O)(=O)C3)c(C)c2cc1C (centres undefined) | -19.1% | -5.5% | -22.4 | 9.8%
CN1CCN(CCCc2c3c(cc4c2CCC4)CCC3)CC1 | -1.3% | -5.2% | -10.5 | ?
COc1ccc(C(=O)NC(=S)NNC(=O)c2ccc(C)cc2)cc1 | . | -2.0% | . | 0.4%
O=C1CCCC2=C1C(c1cccc(O)c1)C1=C(N2)c2ccccc2C1=O (centres undefined) | -12.4% | 1.1% | -8.6 | -7.1%
CN(C)CCCNc1nc(N)c([N+](=O)[O-])c(NCCO)n1 | -1.5% | -1.1% | -6.0 | -2.5%
CCOc1ccc(N(CC(=O)NCc2ccc(F)cc2)C(=O)c2snc(C(N)=O)c2N)cc1 | -0.8% | ? | . | -7.6%

Screens (PubChem BioAssay)

These rows are one share of the data (hit frequency here may not be typical).
